TRPML1 ag = agonists of human TRPML1 channel; Q9GZU1; TRPML1-expressing cells, Ca2+ dye fluorescence, FDSS; host cell line not named in the record; reference of the full effect not given here; activation, % (test concentration not listed); hit rate 0.12% among 410,000; in the data active = activation above about 50%; inconclusive = about 30% to 50%; inactive = below about 30%; further: 0% is about no effect; the text of the record puts the active cut at 80%
Target sequence (Q9GZU1 whole entry, looked up): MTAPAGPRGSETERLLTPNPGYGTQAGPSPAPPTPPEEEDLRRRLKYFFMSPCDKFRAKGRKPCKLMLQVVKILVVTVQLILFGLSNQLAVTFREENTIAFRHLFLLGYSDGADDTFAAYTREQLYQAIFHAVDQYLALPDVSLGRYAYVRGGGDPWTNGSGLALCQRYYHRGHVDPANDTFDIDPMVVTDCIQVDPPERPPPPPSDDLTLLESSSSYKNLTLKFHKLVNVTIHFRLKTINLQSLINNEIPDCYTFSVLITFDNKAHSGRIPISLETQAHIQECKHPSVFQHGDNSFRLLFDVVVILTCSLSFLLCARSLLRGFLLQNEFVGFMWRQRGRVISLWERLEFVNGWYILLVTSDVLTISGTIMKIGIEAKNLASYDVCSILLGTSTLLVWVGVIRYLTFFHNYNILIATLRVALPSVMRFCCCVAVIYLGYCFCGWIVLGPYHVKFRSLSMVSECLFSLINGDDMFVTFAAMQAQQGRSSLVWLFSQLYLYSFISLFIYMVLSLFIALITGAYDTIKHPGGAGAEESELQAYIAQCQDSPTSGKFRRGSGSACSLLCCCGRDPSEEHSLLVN
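Tetracycline-induced TRPML1-DL cells are seeded and incubated overnight before loading with a no-wash Ca2+ dye and quencher. Agonist activity is taken from the 110 s fluorescence read following compound pin-transfer on an FDSS, before EC80 54-4 challenge.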
Menin MLL FP FL = inhibitors of human menin-MLL interaction, wild-type MLL peptide; Fluorescence polarization, fluorescein-MLL peptide displacement from menin; FP activity change, % at 61.4 µM; 290,000 tested, under 10 active; AID 1766; inconclusive = falling polarisation curve, or a change in total fluorescence; inactive = total fluorescence flat and polarisation flat or rising; no compound was filed as active; the % refers to the polarisation; negative = inhibition;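 further: % of control where 0% means no effect; inhibitors lower the polarisation; unlabelled MLL peptide was the positive control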
TRPML1 blocker = inhibitors of human TRPML1 channel; hit rate 0.02% among 390,000; activity change, negative = inhibition, % (test concentration not listed); Q9GZU1; TRPML1-inducible cells, Ca2+ dye fluorescence, FDSS; stronger effect = lower value; inhibition of EC80 agonist-evoked calcium signal; in the data active means activity change below about -50%; inconclusive means about -30% to -50%; inactive means above about -30%;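 further: stimulus is agonist 54-4 at its EC80 concentration; on the % scale 0 is the no-effect control and ±100 the full control effect; compound concentration not given in the record; the text of the record puts the active cut at -80%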
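TRPML1-DL cells, Tet-induced overnight (~16 h, 37 °C) at 1,500 cells/well, were loaded with Ca8 no-wash dye plus quencher for 45-90 min at room temperature. Compounds were pinned during FDSS kinetic reading; agonist 54-4 at EC80 (4 uM final) then added.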
gsp agonist = activates gsp, the McCune-Albright syndrome mutation; gsp mutant cells, cAMP HTRF, 30 min; control for the full effect not named in the record; Potency, µM (series often up to 76.9 µM), without a hit: at the highest dose activation (cAMP increase), hits mostly activators; hit rate 0.13% among 340,000; active = well fitted activation curve with a large enough effect; inconclusive = small, poorly fitted or top-dose-only effect, or another doubt; inactive = no such curve, though single readings can be large or run the other way; cell line not stated here;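 further: phosphodiesterase inhibitor Ro 20-1724 added with compounds to block cAMP breakdown; potency means the concentration at half of the fitted maximal effect; nearly all actives have a fitted effect of over 60% in size; about a fifth of the inactives were tested at one dose only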
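Cells stably selected in G418 were plated at 2000/well, grown 16-24 hr, then given compounds in DMSO with the PDE inhibitor […] (300 uM solution added) for 30 min at 37C; cAMP was read by HTRF.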
gsp antag = antagonizes gsp, the McCune-Albright syndrome mutation; gsp-mutant cells, cAMP HTRF, 30 min; control for the full effect not named in the record; Potency, µM (series often up to 76.9 µM), inactives show at the top dose activity change, negative = inhibition, hits mostly inhibitors; hit rate 0.4% among 340,000; active = falling curve of any shape with a large fitted effect; inconclusive = falling curve, mostly with a smaller effect; inactive = flat or rising curve; cell line not stated here;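 further: intracellular cAMP measured with PDE inhibitor Ro 20-1724 present during compound exposure; potency means the concentration at half of the fitted maximal effect; on the % scale 0 is the no-effect control and ±100 the full control effect; nearly all actives have a fitted effect of over 65% in size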
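HTRF cAMP read-out (cAMP-d2 plus anti-cAMP antibody-K in lysis buffer, 30 min RT). Before lysis, cells are exposed to compounds with […] for 30 min at 37C in DPBS containing Ca/Mg, BSA and Tween 20.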
ClpP mod = qHTS Assay for Activators of ClpP; ATP-dependent Clp protease proteolytic subunit (Bacillus subtilis (strain 168)), P80244; purified B. subtilis ClpP, FRET peptide cleavage, 20 min; Potency, µM (highest dose often 57.5 µM), for the others: at the top dose activity change, negative = active; hit rate 1.9% among 340,000; active = well fitted falling curve with a large enough effect; inconclusive = small, poorly fitted or top-dose-only effect; inactive = no such curve, though single readings can be large or run the other way; further: potency means the concentration at half of the fitted maximal effect; the source files actives as falling curves though it sought activators and does not explain the sign; nearly all actives have a fitted effect of over 65% in size; many hits overshoot -100%
Target sequence (P80244 whole entry, looked up): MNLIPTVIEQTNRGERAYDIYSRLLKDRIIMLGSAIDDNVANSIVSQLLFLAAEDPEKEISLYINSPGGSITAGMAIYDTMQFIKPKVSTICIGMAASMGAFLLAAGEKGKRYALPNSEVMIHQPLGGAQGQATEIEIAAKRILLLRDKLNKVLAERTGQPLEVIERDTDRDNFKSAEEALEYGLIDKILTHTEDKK
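Buffer: 100 mM Tris/HCl pH8, 100 mM KCl, 0.05% low protease BSA, 2.5% glycerol, 0.01% Tween-20. ClpP 10 microg/mL final; 20 min RT; delta FRET normalized to ADEP and DMSO controls.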
Starred values were filed as active, the others as inactive; ? = inconclusive; · = not tested or not shown; [ ] = remark or other dose.

The line under a structure holds: ClpP mod, Menin MLL FP FL, gsp antag, TRPML1 ag, TRPML1 blocker, gsp agonist
1: CC1CCCC(NC(=O)CN2CCN(Cc3ccc(Cl)cc3)C2=O)C1C (configuration not stated)
 : ?, 2.6, -1%, -0.6, -4, 4%
2: Cc1ccccc1OCc1nnc(SCC(=O)Nc2ccc(N3CCOCC3)c(Cl)c2)n1C
 : 1.0%, -0.6, -22%, 0.0, -4, -43%[inhibitor]
3: CN(CC(=O)Nc1cccc(F)c1)C(=O)C1=COCCO1
 : ·, ·, 1%, -0.1, -1, -4%[15.4 µM]
4: COc1ccc(S(=O)(=O)N(CC(=O)N2CCOCC2)c2cc(Cl)ccc2OC)cc1OC
 : -1.3%, 1.6, -12%, 1.0, -18, ?
5: COc1cc(-c2nc3ccccn3c2/N=C/c2cccc(OC)c2O)ccc1O
 : ·, -1.0, ?, 0.3, -2, -33%[15.4 µM]
6: COc1c(C=O)c2c(c(OC)c1OC)-c1ccc(OC)c(=O)cc1C(NC(C)=O)CC2 (configuration not stated)
 : -3.3%, ·, -2%, 1.1, 0, 31%
7: CCOc1cc(CNc2ccc(O)cc2)cc(Br)c1OCc1ccccc1F
 : -2.2%, -0.4, -18%, 1.7, 1, 0%
8: CCOC(=O)c1ccc(NC(=O)CCC(=O)N2CCSc3ccccc32)cc1
 : 0.8%, ·, ·, 2.3, 31, ·
9: C/C=C(/C)C(=O)Nc1cccc(C2=NOC3(C2)C[C@@H](C(N)=O)N(C(=O)c2ccc(OC)cc2)C3)c1 (some centres not stated)
 : 0.9%, -0.8, 0%, -0.2, -13, ·
10: O=C(NCc1ccccc1F)C(c1ccccc1)c1ccccc1
 : 2.0%, -0.6, -5%, ·, ·, -27%
11: O=C(Nc1nnc(CC(=O)N2CCOCC2)s1)c1cccs1
 : -1.0%, 5.1, 7%, 0.2, -11, -2%
12: CS(=O)(=O)N(CC(=O)N1CCc2ccccc2C1)c1ccccc1Br
 : 0.4%, -2.0, 2%, 0.5, 1, 6%
13: COC(=O)c1cc2oc(C)cc2n1CC(=O)Nc1cc(C)cc(C)c1
 : -5.8%, 2.4, 12%, 0.1, 12, 18%
14: O=C(CN1CCCC1)Nc1ccc([N+](=O)[O-])cc1
 : ·, -4.2, 9%, 0.0, 17, -13%
15: O=C(Nc1ccc(N2CCN(C(=O)c3cccs3)CC2)cc1)c1ccc(F)cc1
 : ·, -1.1, -17%, 1.1, 1, -1%
16: C[C@]12c3[nH]c4ccc(Cl)cc4c3CCN1C(=O)[C@@H](CC(=O)NCCC1=CCCCC1)C[C@@H]2C(=O)N1CCOCC1
 : 1.4%, ·, -14%, 0.5, 3, ·
17: CC(=O)c1c(O)c(C)c(O)c2c1OC1=CC(=O)C(C(C)=O)C(=O)[C@@]12C (some centres not stated)
 : -14%, ?, 5%, 1.6, 7, 0%[15.4 µM]
18: Clc1ccc(OCc2cc(-c3ccccc3)no2)c(Cl)c1
 : 1.2%, 1.9, 11%, 1.5, 14, -17%
19: CCOC(=O)N1CCC(NC(=O)C2CCN(S(=O)(=O)c3cccc4cccnc34)CC2)CC1
 : 0.4%, 1.7, -2%, -0.7, -11, 1%
20: CC(=O)c1cccc(N(C(=O)Cn2nnc3ccccc32)C(C(=O)NCc2ccccc2)c2ccccn2)c1 (configuration not stated)
 : 0.5%, 1.7, 8%, 0.5, -9, -35%
21: O=C1NCCCCC1NS(=O)(=O)c1ccccc1 (configuration not stated)
 : 2.5%, -12, 1%, -0.3, -7, 6%
22: COc1ccc(C2(C(=O)NC(C)C)CCCC2)cc1OC
 : -0.2%, 2.8, -1%, 3.9, 3, 37%
23: CCOC(=O)c1cc2nc(Nc3ccc(OC)cc3)sc2s1
 : ?, 13, -2%, 0.1, 4, 3%
24: COc1ccc(C(c2nnnn2CC2CCCO2)N2CCN(c3ccc(F)cc3)CC2)cc1 (configuration not stated)
 : -1.4%, 1.1, -1%, -0.4, 17, -5%
25: CN(CC(=O)Nc1ccc(F)c(F)c1F)C(=O)Cc1ccc(S(=O)(=O)N2CCOCC2)s1
 : -0.4%, ·, -10%, 0.1, 7, -22%
26: Fc1ccc2ncc3c(-c4ccccc4)n[nH]c3c2c1
 : -4.3%, ·, ·, -0.1, 6, ·
27: COC(=O)c1ccc(COc2nc(C)cc(C)c2C#N)o1
 : -28%, 4.7, -8%, 1.3, -4, -22%
28: CC(=O)c1ccc(NC(=O)C(C)Sc2n[nH]c(-c3cccnc3)n2)cc1 (configuration not stated)
 : ·, 1.1, ·, 0.7, 15, 2%[15.4 µM]
29: COc1ccc(C)cc1N(CC(=O)N1CCOCC1)S(C)(=O)=O
 : -3.5%, -1.5, 9%, -0.8, -2, -12%[15.4 µM]
30: CCCCCC(NC(=O)C1CCN(C(=O)[C@@H](NS(=O)(=O)c2ccc(C)cc2)C(C)C)CC1)C(=O)O (some centres not stated)
 : 0.7%, -1.7, 6%, ·, ·, ·
31: O=C1CCCCC(=O)N(c2ccccc2)c2ccccc21
 : -0.4%, ?, -10%, -0.2, -11, -73%[inhibitor]
32: O=C(NCCN1CCN(Cc2ccccc2)CC1)c1cc2c(=O)[nH]c3ccccc3c2s1
 : -30%, 0.1, 3%, -0.3, 4, -12%
33: Cc1cccc(C)c1NC(=O)CCCN1C(=O)C(c2ccccc2)Oc2cccnc21 (configuration not stated)
 : 0.3%, 3.6, -13%, 1.8, 1, 26%
34: COc1ccc(OC)c(NC(=O)CSc2nnc3ccc(-c4ccccn4)nn23)c1
 : -1.5%, ·, 10%, -0.1, 5, 13%
35: CCOC(=O)C(C(=O)OCC)c1c([N+](=O)[O-])c(=O)n2c3c(cccc13)CCC2
 : ·, -1.3, -5%, 2.9, 8, 14%
36: ClCc1ncc(-c2ccc(Cl)cc2)o1
 : ·, -2.8, 0%, -0.2, 5, 2%
37: CCC(C)(C)NC(=O)Cn1c(=O)ccc2cc(S(=O)(=O)N3CCC(C)CC3)ccc21
 : -5.2%, ·, ·, 0.5, -2, ·
38: COc1ccccc1Oc1nc2c(c(=O)n(C)c(=O)n2C)n1Cc1cccc(Br)c1
 : -0.3%, ·, ·, 14, 3, ·
39: NS(=O)(=O)c1ccc(CCNC(=O)c2ccco2)cc1
 : ·, 2.0, 19%, -0.7, -12, -6%[15.4 µM]
40: Cc1ccc(NC(=O)Nc2cccnc2)cc1NC(=O)Nc1cccnc1
 : -0.6%, -8.6, ?, 5.9, 15, -84%[inhibitor]

Whole records, looked up by structure. Values in the order: ClpP mod, Menin MLL FP FL, gsp antag, TRPML1 ag, TRPML1 blocker, gsp agonist
O=C1CCCCC(=O)N(c2ccccc2)c2ccccc21 reads -0.4%, ?, -10%, -0.2, -11, -73%[inhibitor]
CCC(C)(C)NC(=O)Cn1c(=O)ccc2cc(S(=O)(=O)N3CCC(C)CC3)ccc21 reads -5.2%, ·, ·, 0.5, -2, ·

Further structures.
The line under a structure holds: ClpP mod, Menin MLL FP FL, gsp antag, TRPML1 ag, TRPML1 blocker, gsp agonist
41: Cc1ccc(OCC(O)CNS(=O)(=O)c2ccccc2C(=O)O)cc1 (configuration not stated)
 : 0.5%, ?, -5%, 0.8, 8, -7%
42: O=C(COC(=O)C1CCC1)NCc1ccccc1
 : -4.8%, ·, 8%, -0.7, 0, 22%
43: CCN(C[C@H]1N[C@@](CC)(C(=O)OC)[C@H]2C(=O)N(C)C(=O)[C@@H]12)C(=O)Nc1ccc(C(F)(F)F)cc1
 : 0.5%, ·, 2%, -0.6, 3, ·
44: CCC1CCc2c(sc(N)c2C(N)=O)C1 (configuration not stated)
 : 1.6%, ·, 8%, 0.5, -6, -25%
45: CN(/C=C/c1c([N+](=O)[O-])c(=O)n(C)c(=O)n1C)c1ccccc1
 : -2.2%, -2.1, -5%, -0.2, 5, 15%[15.4 µM]
46: CCC(C)(C(=O)NC1CCCC1)N(C(=O)c1ccccn1)c1ccccc1 (configuration not stated)
 : -3.5%, 4.2, -10%, 0.0, 12, -39%[inhibitor]
47: Cc1nc2c(O)cccc2cc1CO
 : -1.3%, -1.5, 0%, 4.2, -4, ?
48: COc1ccccc1CNC(=O)CSc1nnc2ccc(-c3cccnc3)nn12
 : ·, 0.5, -4%, 1.0, 26, 3%[15.4 µM]
49: CC(C)c1ccc(C2OCC(C)([N+](=O)[O-])CO2)cc1 (configuration not stated)
 : ·, ·, 10%, 0.0, 10, -48%[inhibitor]
50: O=C(c1cc2nc(-c3ccco3)cc(C(F)(F)F)n2n1)N1CCCc2ccccc21
 : -3.7%, 6.4, 2%, -0.2, 51, -11%
51: Cc1c(C(=O)NC(C)c2ccccc2)c(-c2ccccc2)nn1-c1ccccc1 (configuration not stated)
 : -1.7%, -1.9, -6%, 0.5, -17, 5%
52: CC12CCCCC1=CC(=O)CC2 (configuration not stated)
 : -0.3%, ·, -1%, 1.3, 47, 0%[15.4 µM]
53: COc1ccc(/C=N/NC(=O)C2(O)c3ccccc3-c3ccccc32)cc1
 : -2.5%, 4.6, 8%, 1.0, 11, -8%
54: CCSc1nc2ccccc2n1C(=O)c1ccc(S(=O)(=O)N2CCCCCC2)cc1
 : -2.4%, 1.6, -4%, 2.0, -11, -26%
55: O=C(COC(=O)c1cc(=O)[nH]c2ccc(Br)cc12)c1ccccc1
 : ·, 2.9, ?, 5.7, 9, 22%
56: COc1ccnc(CSC(N)=Nc2ccc(F)cc2)c1
 : -3.6%, 1.8, -9%, 13, 9, 5%
57: COc1ccccc1OCCC(=O)OCCN1C(=O)c2ccccc2C1=O
 : -3.2%, 3.2, 3%, -0.5, 1, -12%
58: CCn1nnc(-c2ccc(N)cc2)n1
 : ·, -0.7, 8%, -0.4, 1, -55%[inhibitor]
59: CCCCOCC1CN(c2ccccc2)C(=O)CS1 (configuration not stated)
 : -0.2%, 2.2, -11%, -0.2, 8, 0%
60: C=CCO/N=C(/C)c1ccc(Oc2cnccn2)cc1
 : ·, -0.4, -2%, 1.0, -8, 22%[15.4 µM]
61: COc1ccc(CNC(=O)CCCc2nnc3n(CCC(C)C)c(=O)c4sccc4n23)cc1
 : -9.6%, ·, ·, 0.7, 5, ·
62: COc1ccc(C(=O)C2CCCN(C(=O)c3cccc(N(C)C)c3)C2)cc1OC (configuration not stated)
 : 1.4%, ·, -1%, -0.5, 27, -2%
63: O=C1NC(c2ccc(-c3ccccc3[N+](=O)[O-])o2)C(C(=O)c2ccc(Cl)cc2)C(O)(C(F)(F)F)N1 (configuration not stated)
 : -2.5%, -2.0, 4%, 1.1, 3, -17%
64: C=Cn1c(C(=O)O)ccc1-c1ccc(CC)cc1
 : -6.9%, 0.3, 2%, 0.0, 11, 2%
65: O=c1c2c([nH]c3ccccc13)CCCC2
 : -4.9%, 0.7, -5%, -1.0, 3, 11%
